PINK1 modulator = changes PINK1 expression. 0.2% of 410,000 active. PINK1 immunofluorescence, high-content cytometry, 24 h. Potency, µM (top dose mostly 76.6 µM), for inactives: top-dose activation (PINK1 increase), hits mostly activators. AID 624263; active = well fitted activation curve with a large enough effect; inconclusive = small, poorly fitted or top-dose-only effect; inactive = flat fitted curve, though single readings scatter; cell line not stated here;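 further: potency means the concentration at half of the fitted maximal effect; % of control where 0% means no effect; nearly all actives have a fitted effect of over 65% in size; a mitochondrial uncoupler was the plate control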
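Fluorescence from anti-PINK1 antibody, together with nuclear and cell stains, was scanned on a laser-scanning cytometer. Before staining, stable-line cells were incubated 24 hours with compounds at 5 concentrations; primary antibody 12 h at 10 degrees C.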
TRPV1 potentiator = potentiators of human vanilloid receptor 1 (TRPV1); Q8NER1; TRPV1-expressing cells, Fluo-8 calcium influx, capsaicin EC20 potentiation; host cell line not named in the record; control for the full effect not named in the record; potentiation, % at 8.33 µM; 0.02% of 320,000 active; AID 540277; active means potentiation above 80%; inconclusive means 30% to 80%; inactive means below 30%; further: 0% is about no effect
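Fluo-8 calcium influx in TRPV1-expressing cells, kinetic read (ex 480/em 520 nm). Compound added and read 3 min for agonist activity, followed by capsaicin at EC20 final and 2 min further read for enhancement.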
TRPML1 agonist = agonists of human TRPML1 channel. Q9GZU1. activation, % (test concentration not listed). AID 624414. 0.12% of 410,000 active. TRPML1-expressing cells, Ca2+ dye fluorescence, FDSS; host cell line not named in the record; reference of the full effect not given here; in the data active = activation above about 50%; inconclusive = about 30% to 50%; inactive = below about 30%; further: 0% is about no effect; the text of the record puts the active cut at 80%
Target sequence (Q9GZU1 whole entry, looked up): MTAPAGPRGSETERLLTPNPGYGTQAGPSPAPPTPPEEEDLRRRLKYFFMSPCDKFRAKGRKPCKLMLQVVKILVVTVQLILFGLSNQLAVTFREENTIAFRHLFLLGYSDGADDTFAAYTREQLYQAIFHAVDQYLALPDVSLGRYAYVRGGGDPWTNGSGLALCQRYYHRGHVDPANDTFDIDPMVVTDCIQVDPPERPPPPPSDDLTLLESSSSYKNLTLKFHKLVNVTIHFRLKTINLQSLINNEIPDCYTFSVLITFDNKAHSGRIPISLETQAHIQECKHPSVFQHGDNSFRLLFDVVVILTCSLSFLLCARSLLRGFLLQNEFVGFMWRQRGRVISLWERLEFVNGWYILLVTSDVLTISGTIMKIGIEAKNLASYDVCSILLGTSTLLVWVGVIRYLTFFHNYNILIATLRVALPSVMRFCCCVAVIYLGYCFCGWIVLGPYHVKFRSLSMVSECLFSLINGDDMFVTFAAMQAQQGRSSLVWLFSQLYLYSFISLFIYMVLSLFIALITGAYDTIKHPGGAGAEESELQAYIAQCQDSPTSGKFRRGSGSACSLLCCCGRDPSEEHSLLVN
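Agonist activity was taken from a 110 s kinetic Ca2+ dye read on the FDSS after pinning compounds onto TRPML1-DL cells. The cells were seeded at 1,500/well with Tet inducer, incubated about 16 h, then dye-loaded at room temperature.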
Menin-MLL FL inh = menin-MLL binding inhibition, fluorescein peptide. Fluorescence polarization, fluorescein-MLL peptide displacement from menin. FP activity change, % at 61.4 µM. 290,000 tested, under 10 active. AID 1766; inconclusive = falling polarisation curve, or a change in total fluorescence; inactive = total fluorescence flat and polarisation flat or rising; no compound was filed as active; the % refers to the polarisation; negative = inhibition;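 further: % of control where 0% means no effect; inhibitors lower the polarisation; unlabelled MLL peptide was the positive control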
TRPML1 inh = inhibitors of human TRPML1 channel; Q9GZU1; TRPML1-inducible cells, Ca2+ dye fluorescence, FDSS; stronger effect = lower value; inhibition of EC80 agonist-evoked calcium signal; activity change, negative = inhibition, % (test concentration not listed); 0.02% of 390,000 active; in the data active means activity change below about -50%; inconclusive means about -30% to -50%; inactive means above about -30%;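 further: stimulus is agonist 54-4 at its EC80 concentration; on the % scale 0 is the no-effect control and ±100 the full control effect; compound concentration not given in the record; the text of the record puts the active cut at -80%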
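Calcium fluorescence in TRPML1-DL cells induced overnight with Tet: a 110 s read after compound pin addition, then a 110 s antagonist read after challenge with 54-4 at 4 uM final (EC80).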
ClpP mod = qHTS Assay for Activators of ClpP; ATP-dependent Clp protease proteolytic subunit (Bacillus subtilis (strain 168)), P80244; purified B. subtilis ClpP, FRET peptide cleavage, 20 min; Potency, µM (series often up to 57.5 µM), for the others: top-dose activity change, negative = active; 1.9% of 340,000 active; active = well fitted falling curve with a large enough effect; inconclusive = small, poorly fitted or top-dose-only effect; inactive = no such curve, though single readings can be large or run the other way; further: potency means the concentration at half of the fitted maximal effect; the source files actives as falling curves though it sought activators and does not explain the sign; nearly all actives have a fitted effect of over 65% in size; many hits overshoot -100%
Target sequence (P80244 whole entry, looked up): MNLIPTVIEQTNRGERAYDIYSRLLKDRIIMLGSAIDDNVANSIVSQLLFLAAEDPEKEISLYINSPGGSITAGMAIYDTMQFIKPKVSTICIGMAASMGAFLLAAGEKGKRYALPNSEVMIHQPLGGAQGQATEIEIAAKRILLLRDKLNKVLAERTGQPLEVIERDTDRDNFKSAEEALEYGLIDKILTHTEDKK
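Purified B. subtilis ClpP, 10 microg/mL final in Tris/HCl pH8 with KCl, BSA, glycerol and Tween-20, cleaved an Abz/nitrotyrosine-quenched decapeptide. Fluorescence (ex 320, em 430) was read at 0 and 20 min at room temperature. Delta was normalized to 5.8 microM ADEP and DMSO/no-enzyme controls.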
Sfp inh = blocks B. subtilis Sfp PPTase activity; Potency, µM, without a hit: max response, negative = inhibition, usual class: inhibitors; AID 1490; Q9F4F7; Biochemical Sfp PPTase activity, qHTS; 3.5% of 310,000 active; active means well fitted inhibition curve with a large enough effect; inconclusive means small, poorly fitted or top-dose-only effect, or another doubt; inactive means no such curve, though single readings can be large or run the other way;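 further: the enzyme is Sfp with the accession as filed and its product quenches rhodamine fluorescence; potency means the concentration at half of the fitted maximal effect; 0% = enzyme reaction without inhibitor and -100% = no enzyme wells; top concentration of the series not given in the record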
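Reaction rates are the 30-min fluorescence difference (ex 525, em 598 nm) in wells containing 15 nM Sfp, 5 uM rhodamine-CoA and 12.5 uM BHQ-2-YbbR at pH 7.6 with 10 mM MgCl2.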
An asterisk follows results filed as active; ? = inconclusive; . = no result given; [ ] = remark or other dose.

SMILES	PINK1 modulator	TRPV1 potentiator	TRPML1 agonist	Menin-MLL FL inh	TRPML1 inh	ClpP mod	Sfp inh
O=C(NCCC1=CCCCC1)C1CC(=O)N(C2CCCCCC2)C1 (configuration not stated)	.	-14.5	0.8	3.6	-4.5	-1.9%	20.5%
CCOC(=O)c1noc2nc(C)n(CC(=O)Nc3cc(Cl)ccc3OC)c(=O)c12	2.7%	.	-0.7	.	12.5	-3.0%	.
O=C(CCc1nc2cccnc2n1-c1ccccc1)Nc1ccc(Cl)c(Cl)c1	2.7%	.	0.2	.	-5.8	-2.5%	.
Cc1ccc(NS(=O)(=O)c2c(C)nc3sccn3c2=O)c(Cl)c1	2.6%	.	0.4	.	10.5	0.2%	.
CC(=O)c1cc2c(cc1NC(=O)CN1CCOCC1)OCO2	?	-12.9	0.2	4.3	-11.8	-13.6%	10.5%
CCn1cc(C(=O)N2CCN(c3cc(Cl)ccc3C)CC2)c(=O)c2cc(S(=O)(=O)N3CCCC3)ccc21	1.8%	.	-0.3	.	11.2	-1.2%	.
CC(=O)NC1=NN(C(C)=O)C2(CCCC2)S1	3.6%	-3.2	0.8	-2.3	8.2	.	-0.5%
Cc1c(CC(=O)O)c(=O)oc2cc(OCc3ccc(Br)cc3)ccc12	0.7%	-3.4	0.2	4.6	-17.4	-2.8%	14.2%
NC(N)=NCCC[C@H](NC(=O)OCc1ccccc1)C(=O)O	1.0%	10.8	-0.4	3.3	-7.9	0.4%	5.6%
CC(C)CC(C(=O)O)C(C)CC(=O)Nc1ccn(-c2ccccc2)n1 (configuration not stated)	-1.2%	2.7	0.5	-2.1	-2.1	1.5%	21.5%
CC(C)Oc1ccc(C(=O)NCC(c2ccc(N(C)C)cc2)N2CCc3ccccc32)cc1 (configuration not stated)	0.2%	.	-0.4	.	9.9	?	.
CCCn1c(SCC(=O)NCc2ccccc2)nnc1-c1ccncc1	0.8%	4.3	-0.3	1.3	-6.2	0.9%	4.6%
CCc1ccc(NC(=O)CCNS(=O)(=O)c2ccc3c(c2)CCCC(=O)N3)cc1	-1.3%	.	1.4	.	1.2	0.5%	.
CCC(C(=O)NCc1ccccc1OC)n1nc(C)n2c(cc3sccc32)c1=O (configuration not stated)	-1.3%	.	0.4	.	-7.8	-8.5%	.
CCCn1cc(S(=O)(=O)c2ccc(C)c(C)c2)c(=O)c2cc(F)c(N3CCC(C)CC3)cc21	-0.5%	.	0.1	.	10.5	0.1%	.
O=C(Oc1c(Cl)cc(Cl)c2cccnc12)N1CCCCC1	4.0%	1.8	0.4	7.3	-1.0	-14.6%	-14.1%
COC(=O)c1ccc(NC(=O)N2CCCC(C(=O)c3ccccc3OC)C2)cc1 (configuration not stated)	2.5%	-4.5	1.4	-0.2	-12.8	-2.6%	6.8%
Cc1ccc2sc(N(CCCN(C)C)C(=O)c3nc4ccccc4s3)nc2c1C	-2.4%	-18.1	0.7	-2.2	-14.9	.	-19.8%
CCOC(=O)C1CCN(C(=O)COC(=O)C2CCN(S(=O)(=O)c3ccc(C)c(C)c3)CC2)CC1	-0.2%	-7.3	0.7	.	-10.0	-0.4%	.
Cc1nnc(SC(C)C(=O)Nc2ccc(N3CCOCC3)cc2)n1Cc1ccccc1 (configuration not stated)	-2.0%	-2.4	0.9	.	-3.7	-2.9%	.
CCN1CCN(c2nnc(-c3ccc(F)cc3)c3ccccc23)CC1	0.7%	-6.2	0.4	-1.3	?	.	8.0%
Cc1ccc2c(CN(Cc3ccccc3)Cc3ccccc3)cc(=O)oc2c1	0.7%	.	1.6	.	54.8	-7.2%	.
c1n[nH]c(SCCCCSc2ncn[nH]2)n1	-0.3%	4.9	0.5	0.7	8.0	0.6%	-4.8%
O=c1cc(-c2ccc3c(c2)OCCO3)oc2ccc(Cl)cc12	1.9%	-7.7	-0.8	3.6	6.2	?	8.7%
CC(C)(C)c1ccc(COC(=O)CN2C(=O)NC3(CCCC3)C2=O)cc1	6.5%	-4.5	1.4	.	-5.1	-1.3%	.
SMILES	PINK1 modulator	TRPV1 potentiator	TRPML1 agonist	Menin-MLL FL inh	TRPML1 inh	ClpP mod	Sfp inh
CN(Cc1ccccc1)C(=O)c1csc([C@@H]2C[C@H](O)[C@@H](CO)O2)n1	0.2%	.	-0.4	.	.	-10.7%	.
O=C(CSc1nnc(CNC(=O)c2cccs2)o1)NCc1ccc(F)cc1	-0.9%	6.7	0.0	3.6	22.6	-0.9%	7.8%
COC1=C(Nc2ccc(O)cc2)C(=O)c2ccccc2C1=O	-0.7%	-5.2	2.1	1.7	5.6	-0.5%	?
CCc1nn(C)c(-c2n[nH]c(=S)n2N)c1Cl	-1.5%	-4.1	-0.4	0.4	-3.3	-1.7%	44.7µM*
COc1cc(F)ccc1-c1csc(C(O)c2ccc(F)c(F)c2)n1 (configuration not stated)	7.2%	.	-0.4	.	-0.9	1.7%	.
CCOC(=O)C1CCN(C(=O)c2nn(-c3ccc(OC)cc3)c(=O)c3c2c2ccccc2n3C)CC1	2.5%	.	1.5	.	-17.8	-22.1%	.
COc1cccc(NC(=O)CN2C(=O)NC(C)(CCC(C)C)C2=O)c1 (configuration not stated)	-0.5%	?	-0.3	-4.4	17.4	.	-2.0%
CC(=O)NCC1(c2ccccc2)CCN(CCCC(=O)c2ccc(F)cc2)CC1	-0.4%	.	0.0	.	-6.6	0.3%	.
Cc1ccc(S(=O)(=O)NC23CC4CC(CC(C4)C2)C3)cc1	10.9%	10.2	-0.6	.	-1.9	1.7%	.
CCOC(=O)C1=C(O)CSC1=Nc1ccc(Cl)cc1	.	-1.0	2.5	-4.2	-2.8	-2.6%	-4.6%
COc1ccc([N+](=O)[O-])cc1NC(=S)Nc1ccccc1	-0.7%	9.8	-1.2	-0.8	29.0	-2.7%	?
CCN(CC)CCNc1ncnc2c1sc1nc(N3CCCC3)c3c(c12)CC(C)(C)OC3	-2.5%	-15.3	0.9	-1.1	53.4	.	-22.5%
CCOC(=O)C1CCCN(C(=O)CN2C(=O)COc3ccc(C(C)(C)C)cc32)C1 (configuration not stated)	-2.3%	-26.1	-0.2	0.7	-7.8	-0.4%	2.4%
Cc1ccc(S(=O)(=O)Nc2ccc3c(c2)C(=O)N([C@H](C)CO)C[C@H](C)[C@H](CN(C)C(=O)Nc2cccc4ccccc24)OCCCC[C@@H](C)O3)cc1	2.4%	.	0.1	.	3.6	4.3%	.
CC(C)(C)N(Cc1cc2ccccc2[nH]c1=O)C(=O)c1cccnc1	2.9%	5.8	0.1	0.0	1.8	-7.4%	16.3%
CC1Oc2ccccc2C=C1/C=N/NC(=O)c1ccccc1 (configuration not stated)	-0.6%	-18.0	-0.9	3.3	9.3	2.8%	4.5%
CCOC(=O)c1c(C)n(C)c2ccc(OCC(O)CN3C(=O)c4ccccc4S3(=O)=O)cc12 (configuration not stated)	-1.3%[38.3 µM]	25.7	4.4	-0.5	-9.1	-3.8%	8.1%
CC(C)Oc1ccc(CNC(=O)c2ccc(CS(=O)Cc3ccccc3Cl)o2)cc1 (configuration not stated)	-0.4%	.	3.1	.	7.1	-1.4%	.
CCC(C)NC(=S)N(Cc1cc2cc(C)ccc2n2nnnc12)CC(C)(C)NC(C)C (configuration not stated)	-0.5%	6.2	0.1	0.4	25.0	-0.6%	3.6%
O=C(Nc1ccc(NC(=O)c2cc3ccccc3o2)cc1)c1ccc2c(c1)OCCO2	3.8%	1.2	0.6	2.3	10.0	.	24.3%
COc1cccc(C(=O)Nc2c(C(=O)N3CCN(c4ccc(F)cc4)CC3)oc3ccccc23)c1	-0.8%	.	0.8	.	-13.4	?	.
CC(=O)Nc1ccc(S(=O)(=O)N(C)c2ccc(OCC(=O)Nc3ccccc3C(C)=O)cc2)cc1	?	-19.7	0.4	.	15.0	-4.7%	.
COc1cccc(C(=O)NCCS(=O)(=O)NCc2ccco2)c1	1.2%	-8.5	-0.4	.	3.6	.	.
CC(=O)Nc1ccc(NC(=O)Nc2ccc(C)c(C)c2)cc1	9.9%	-11.1	0.6	-2.7	14.9	1.4%	10.1%
COc1ccccc1CN1CC(C(=O)NC2CCOCC2)CCC1=O (configuration not stated)	0.9%	22.9	0.8	.	15.8	-2.4%	17.9%
SMILES	PINK1 modulator	TRPV1 potentiator	TRPML1 agonist	Menin-MLL FL inh	TRPML1 inh	ClpP mod	Sfp inh
Cc1ccc(OCC(=O)N(Cc2ccccc2)C(C)(C)C)c([N+](=O)[O-])n1	-0.9%	-1.2	1.0	1.1	10.0	-1.6%	10.6%
CCN(CC)c1ccc(NC(=O)Cn2cc3c(n2)CCCC3)c(C)c1	2.1%	.	0.2	.	36.4	-0.7%	.
O=C(Nc1ccc2oc(-c3cccc4c(Br)cccc34)nc2c1)c1ccc(Br)cc1	3.4%	.	0.6	.	-14.7	-11.5%	.
CCCCOc1ccc(/C(N)=N/O)cc1	3.0%[38.3 µM]	2.5	-0.8	-1.0	19.0	0.6%	5.5%
COc1ccc(/C=N/N2CCOCC2)cc1O	-1.4%	-1.4	-0.1	.	-6.1	-3.4%	19.3%
Cc1ccc(Nc2nnc(-c3ccc(C)c(S(=O)(=O)N4CCCCC4)c3)c3ccccc23)cc1	1.7%	.	1.0	.	-4.5	-1.0%	.
COC(=O)c1ccc(COC(=O)C2CCN(S(=O)(=O)c3c(C)cc(C)cc3C)CC2)o1	-1.3%	.	2.4	.	-3.3	-1.6%	.
CCCc1cc(=O)oc2cc(OCC(=O)NCCc3c[nH]c4ccccc34)ccc12	-0.6%	11.2	.	-2.3	.	3.5%	28.2%
Cc1cccc(C(OC(=O)c2ccco2)C(=O)NCc2ccccc2)n1 (configuration not stated)	0.3%[38.3 µM]	-0.6	-0.5	-1.6	-3.9	-1.1%	-7.9%
CCN(CC(=O)NCc1cccs1)C(=O)c1ccccc1Cl	0.0%	6.2	0.2	-0.2	-9.9	-0.2%	12.7%
N#Cc1ccccc1OCC(=O)N1CCc2ccccc2C1	0.4%	-11.1	-0.2	0.2	-2.6	.	14.1%
Cc1ccccc1C1CC(c2ccc(F)cc2)Nc2nc(N)nn21 (configuration not stated)	-3.6%	-3.9	0.3	2.7	-7.7	0.5%	13.2%
Cc1ccc(NC(=S)Nc2ccc3nc(-c4ccccn4)c(-c4ccccn4)nc3c2)cc1C	5.4%	0.0	19.9	?	-16.4	1.7%	-18.1%
COc1cc(/C=C(\C#N)C(N)=O)ccc1OS(=O)(=O)c1ccc(C)cc1	2.8%	17.9	1.5	5.8	55.1	-1.3%	-4.8%
